Kir21 block: blocks the mouse Kir2.1 inward-rectifier potassium channel; 310,000 compounds, 0.85% hits; P35561; HEK293-Kir2.1, FluxOR thallium flux fluorescence; hits give low values; B-score at 10 µM;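 active means fluorescence ratio B-score at or below minus 3 SD of library scores, with starting-brightness B-score within 2 SD, cut at about -4.2 in these data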;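 further: channel flux triggered by added potassium and thallium sulfate stimulus; B-score of peak minus minimum fluorescence over baseline after thallium stimulus; more negative B-score means stronger Kir2.1 block with less thallium influx; some compounds called inactive have numbers as strong as hits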
Target sequence (P35561 whole entry, looked up): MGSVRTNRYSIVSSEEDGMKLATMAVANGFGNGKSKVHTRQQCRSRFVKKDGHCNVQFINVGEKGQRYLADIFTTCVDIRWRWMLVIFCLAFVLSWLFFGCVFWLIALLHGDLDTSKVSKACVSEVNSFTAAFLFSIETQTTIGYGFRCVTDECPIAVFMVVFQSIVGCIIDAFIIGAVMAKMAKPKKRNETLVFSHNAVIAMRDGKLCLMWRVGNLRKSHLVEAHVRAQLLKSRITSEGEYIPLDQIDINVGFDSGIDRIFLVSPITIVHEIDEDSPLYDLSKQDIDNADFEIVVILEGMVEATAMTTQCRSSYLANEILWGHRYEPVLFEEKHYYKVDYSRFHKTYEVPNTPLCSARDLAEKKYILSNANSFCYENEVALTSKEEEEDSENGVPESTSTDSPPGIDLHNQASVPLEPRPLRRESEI
* = called active by the depositor. Only part of the results is shown; most or all hits stand in other tables.

SMILES | Kir21 block
Cc1ccc(CNC(=O)c2nnn(-c3cccc(C)c3)c2N)cc1 | -0.02
COC(=O)NNC(=O)COc1ccc(Br)c(C)c1 | -1.2
CCOc1ccccc1OCC(=O)Nc1cc(S(=O)(=O)N2CCCCC2)ccc1OC | -0.5
COc1ccc(/C=N/Nc2cc(C)nc(-n3nc(C)cc3C)n2)c(OC)c1 | -0.64
CCOC(=O)c1c(N)nn(C(=O)C(C)(C)C)c1-c1ccccc1 | 0.84
CC(C)c1ccc(NC(=O)C2CC(=O)Nc3nc4ccccc4n32)cc1 (stereo not drawn) | -1.2
Brc1ccc(Nc2ncnc3[nH]ncc23)cc1 | 1.9
CN1CC(c2ccc(Cl)c(Cl)c2)[C@@]2(COc3ccccc3C2=O)[C@@]12C(=O)Nc1ccccc12 (stereo partly drawn) | -0.23
CCCC(=O)Nc1cc2c(cc1C(C)=O)OCCO2 | 0.51
COCCCNC(=O)Cn1nnc(-c2ccc(NC(=O)c3ccccc3F)cc2)n1 | -0.88
Cc1nc(N2CCCCC2)c2ccsc2n1 | -1.3
COc1ccc2c(C=O)cn(C)c2c1 | 0.54
Cc1ccc(C(=O)NC2CCCN(c3ccc(C(F)(F)F)cn3)C2)cn1 (stereo not drawn) | -2.9
CCOc1ccc(CCNC(=O)COC(=O)/C=C/c2cccc(OC)c2)cc1OCC | 0.89
Cc1cc(C(=O)N[C@H](c2ccccc2)[C@@]2(C)C[C@@H]2[C@@H](C)C(=O)Nc2ccc3ccccc3c2)no1 | -0.37
CCNS(=O)(=O)c1ccc(NC(=O)Cn2cc([N+](=O)[O-])cn2)cc1 | -1.6
COc1ccccc1N1CCN(C(=O)CCc2nnc3ccc(N4CCCC4)nn23)CC1 | 0.23
Nc1c(-c2ccc(F)cc2)cnc2ncnn12 | 0.81
C=CCn1c(SCC(=O)c2ccc(Cl)s2)nc2ccccc2c1=O | -0.21
Cc1nnsc1C(=O)N1CCC(C(=O)c2ccccc2)CC1 | -0.46
CCOC(=O)C1=C(C)Nc2sc(C(=O)c3ccc(F)cc3)c(N)c2C1c1ccc(C(=O)OC)cc1 (stereo not drawn) | 0.04
O=C(Nc1cccnc1)c1ccc(Cl)c(Cl)c1 | 0.78
COc1cccc(NS(=O)(=O)CC23CCC(CC2=O)C3(C)C)c1 (stereo not drawn) | -0.46
O=C(Sc1ccccc1)c1cccc(Cn2cc(C(F)(F)F)ccc2=O)c1 | 0.42
Cn1cc(C(=O)N/N=C/c2cccc([N+](=O)[O-])c2)c2ccccc21 | 2.6

A draw from above in order of heavy-atom count, falling:
SMILES | Kir21 block
CCOC(=O)C1=C(C)Nc2sc(C(=O)c3ccc(F)cc3)c(N)c2C1c1ccc(C(=O)OC)cc1 (stereo not drawn) | 0.04
O=C(Sc1ccccc1)c1cccc(Cn2cc(C(F)(F)F)ccc2=O)c1 | 0.42
Cc1ccc(C(=O)NC2CCCN(c3ccc(C(F)(F)F)cn3)C2)cn1 (stereo not drawn) | -2.9
C=CCn1c(SCC(=O)c2ccc(Cl)s2)nc2ccccc2c1=O | -0.21
CCCC(=O)Nc1cc2c(cc1C(C)=O)OCCO2 | 0.51
Cc1nc(N2CCCCC2)c2ccsc2n1 | -1.3

Entries listed so far with a Cl atom (three):
SMILES | Kir21 block
CN1CC(c2ccc(Cl)c(Cl)c2)[C@@]2(COc3ccccc3C2=O)[C@@]12C(=O)Nc1ccccc12 (stereo partly drawn) | -0.23
C=CCn1c(SCC(=O)c2ccc(Cl)s2)nc2ccccc2c1=O | -0.21
O=C(Nc1cccnc1)c1ccc(Cl)c(Cl)c1 | 0.78

More entries follow.
SMILES | Kir21 block
COc1ccc(NS(=O)(=O)c2ccc(N3CCOCC3)c(NC(=O)c3ccccc3Br)c2)cc1 | -0.58
Cc1ccc2c(cnn2C(=O)CCCC(=O)NCc2ccc(Cl)cc2)c1 | -0.06
COc1ccc(C(=O)Nc2nc(C)cs2)cc1S(=O)(=O)N1CCCC1 | -0.8
O=C(N/N=C/c1ccsc1)c1cc(-c2ccncc2)nc2ccccc12 | 0.19
CC1c2cc3c(cc2CCN1CC(=O)Nc1ccccc1)OCCCO3 (stereo not drawn) | -0.03
CC(=O)c1ccc2noc(-c3ccc(C)cc3)c2c1 | 0.01
CC1(OC(=O)C2CCCC2)C(=O)C=C2C=C(c3ccsc3)N(Cc3ccccc3)C=C2C1=O (stereo not drawn) | -0.35
CCN1CCN(C(=O)C2c3cc(OC)c(OC)cc3C(=O)N(C)C2c2ccc(SC)cc2)CC1 (stereo not drawn) | -0.36
CCCCN(C)C(=O)c1nc2ccccn2c1CN1CCSCC1 | -0.07
COC(=O)[C@@H](Cc1ccc(O)cc1)NC(=O)[C@H]1CCC(=O)N1C(=O)OCc1ccccc1 | 0.96
COc1ccc(Br)cc1C(=O)Nc1cccc2ncccc12 | 1.4
O=C(Nc1ccccc1C(=O)Nc1ccccc1)c1cccs1 | -0.17
CCOc1ccccc1CN1CCN(Cc2cn(C)nc2-c2ccccc2)CC1CCO (stereo not drawn) | 5.3
COc1ccc(S(=O)(=O)Nc2ccc3c(c2)OCO3)cc1Cl | -1.1
O=C(c1ccccc1)N1CCN(C(=O)c2cc3ccccc3oc2=O)CC1 | -0.05
Cc1ccc(-c2nc3cccnc3s2)cc1NC(=O)c1ccco1 | 1.5
COc1ccc(CN2CCC(C(=O)c3cccc(Cl)c3)CC2)cc1 | -3.9
Cc1ccc(-n2c(SCC(=O)NCC3CCCO3)nc3ccccc3c2=O)cc1C (stereo not drawn) | 0.1
O=C(CCn1c(=O)sc2ccccc21)Nc1cccnc1 | 0.08
COc1cc([C@H]2[C@@H]3CCCC[C@]3(O)CCN2CC(=O)Nc2ccc(C)cc2C)ccc1O | 0.77
Cc1cc(C)n(C(=O)CCNC(=O)c2ccccc2Br)n1 | 0.34
N#Cc1c(-c2ccco2)c2c([nH]c1=S)CCCC2 | -0.17
O=C(CCC(=O)N1CCOCC1)Nc1nnc(C2CCCCC2)s1 | -0.24
Cc1ccc(OCC(=O)NCCNC(=O)c2ccc(C)nc2)cc1 | 0.52
Cc1ccc(NC(=O)C2CCCN(C(=O)c3ccc(Cl)cc3)C2)cc1 (stereo not drawn) | -1.2
Next results follow.
SMILES | Kir21 block
COc1ccc(-c2nn(-c3ccccc3)cc2/C=N/NC(=O)c2cccc(S(=O)(=O)Nc3ccccc3OC)c2)cc1 | 0.11
O=C(O)c1ccc(CNC(=O)c2ccccc2NC(=O)c2cccc([N+](=O)[O-])c2)cc1 | -0.03
CON(C)S(=O)(=O)c1cccc(C(=O)NC2CCSc3ccccc32)c1 (stereo not drawn) | -0.31
COC(=O)[C@@]12CCCN1[C@H](c1ccc(-c3ccc(OC)cc3)cc1)[C@@H]1C(=O)N(C)C(=O)[C@@H]12 | -0.3
COc1ccc(Cn2nnnc2C(CC(C)C)N2CCC(C(N)=O)CC2)cc1 (stereo not drawn) | 0.23
O=C(O)/C(=C\c1cn(-c2ccccc2)nc1-c1cccnc1)NC(=O)c1ccccc1 | 1
Cc1ccsc1C(=O)NN=C1CCCCCC1 | -0.08
COc1cc(CNC2CCCCCCC2)c(Br)cc1OCCO | -2
Cc1c(C)c2ccc(OCC(=O)N3CCOCC3)c(C)c2oc1=O | 0.09
O=C(N/N=C/c1cccs1)c1cnccn1 | -0.05
CCOC(=O)c1ccccc1NC(=O)CSc1ccccc1 | -1.7
N#Cc1c(SCC(N)=O)nc2c(c1-c1ccncc1)CCCC2 | -0.2
COc1ccc(/C=C/c2nnc(NC(=O)CC(C)C)s2)cc1 | 0
COc1ccc(-c2[nH]ncc2CN2CCC(N3CCSCC3)CC2)c(F)c1 | -1.3
Cc1ccc(CNc2ncnc3cc(Cl)ccc23)cc1 | -0.73
Cc1ccc(NC(=O)c2ccc(Cl)c(N3C(=O)C=CC3=O)c2)cc1 | 0
CC1=C(C(=O)OCc2ccc3c(c2)OCO3)C(c2ccc(F)cc2)NC(=O)N1 (stereo not drawn) | 0.18
Cc1occc1-c1nnc(SCC(=O)NC2CCCC2)n1C | -0.04
CCCCC(=O)Nc1nc2ccc3nc(C)sc3c2s1 | 3.5
CS(=O)(=O)N(CCc1ccccc1)CC(=O)N1CCCCC1 | 2.6
CCCCCCCNC(=O)C1(CC2CC(c3ccc(Cl)cc3)=NO2)CCN(C(=O)CCCCCBr)CC1 (stereo not drawn) | -0.92
CC(=O)c1ccc(N2CCN(CC(=O)Nc3cc(C)on3)CC2)cc1 | -0.26
CCOC(=O)c1c(S(=O)(=O)N2c3ccccc3CC2C)c(C)n(C)c1C (stereo not drawn) | 1.1
O=C(NC1CCCCC1)C(=S)NCCc1ccccc1 | -0.05
CCOC(=O)C(CCCOc1ccc(C(C)CC)cc1)C(=O)OCC (stereo not drawn) | -2

Reprinted from the part before: seven compounds, then new ones.
SMILES | Kir21 block
CCCCC(=O)Nc1nc2ccc3nc(C)sc3c2s1 | 3.5
CS(=O)(=O)N(CCc1ccccc1)CC(=O)N1CCCCC1 | 2.6
CCCCCCCNC(=O)C1(CC2CC(c3ccc(Cl)cc3)=NO2)CCN(C(=O)CCCCCBr)CC1 (stereo not drawn) | -0.92
CC(=O)c1ccc(N2CCN(CC(=O)Nc3cc(C)on3)CC2)cc1 | -0.26
CCOC(=O)c1c(S(=O)(=O)N2c3ccccc3CC2C)c(C)n(C)c1C (stereo not drawn) | 1.1
O=C(NC1CCCCC1)C(=S)NCCc1ccccc1 | -0.05
CCOC(=O)C(CCCOc1ccc(C(C)CC)cc1)C(=O)OCC (stereo not drawn) | -2
Cc1ccc(SC[C@H](Cc2ccccc2)N2CCN(CCc3ccccc3)CCC2=O)cc1 | -0.38
Cc1ccc(C(=O)NCc2ccc3c(c2)OCO3)cc1S(=O)(=O)N1CCCCC1 | 0.04
CCCCCNC(=O)c1ccc2c(=O)n(CC3CCCO3)c(=O)[nH]c2c1 (stereo not drawn) | 0.38
CCCCS(=O)(=O)N1CCN(S(=O)(=O)c2ccc(Cl)s2)CC1 | 1
C=CCNC(=O)c1onc(CSc2ccccc2CC)c1C(=O)O | -0.2
O=C(Nc1ccc(N2CCN(C(=O)c3ccccc3)CC2)cc1)c1ccc(Br)o1 | 0.26
Cc1cc(NC(=S)N(Cc2ccc(Cl)cc2)Cc2ccc(C(=O)O)cc2)ccc1Cl | 0.13
CCn1c(=O)[nH]c(=O)c2c(N)c(C(=O)c3ccccc3OC)sc21 | -0.66
NC(=O)c1ccc(N2CCCCCC2)c([N+](=O)[O-])c1 | -0.86
CCCCNCc1cccn1-c1ccccc1 | -3.6
COc1ccccc1NC(CC(=O)c1ccccc1)C(=O)OCC(=O)c1ccc(F)cc1 (stereo not drawn) | -0.06
O=c1cnn(Cc2c(Cl)cccc2Cl)c2ccccc12 | 0.88
COC(=O)CCC(=O)OC1(C)C(=O)C=C2C=C(C3CC3)N(CCc3ccccn3)C=C2C1=O (stereo not drawn) | -0.97
CCOC(=O)C1=C(c2ccccc2)N=C2SCC(=O)N2C1c1ccc(O)c(OC)c1 (stereo not drawn) | 1.7
O=C(CN1CCC(O)(c2cccc(C(F)(F)F)c2)CC1)NCCc1ccccc1 | -1.4
CCOC(=O)CCCCC(=O)c1[nH]c(=O)[nH]c1CSc1nnc2c3cc(Br)ccc3n(C)c2n1 | 0.03
COc1ccc(CN(C(=O)CCC(=O)N2CCCCC2)c2nccs2)cc1OC | -0.35
OCCNc1ncnc2c1ncn2Cc1ccccc1 | 0.59
Cc1nc2ccccn2c1C(=O)NN=C1CCCC1 | -0.79
Cc1nc(=O)c(-c2ccccc2)c(C)n1-c1ccc(O)c(C(=O)O)c1 | -0.1
O=C(Nc1ccnn1C1CCN(C2CCC2)CC1)c1ccccc1Cl | -0.29
CCC(c1nnnn1CS(=O)(=O)c1ccc(C)cc1)N1CCC(C(N)=O)CC1 (stereo not drawn) | -0.57
CCn1c(SCC(=O)OC2CCCCC2)nnc1-c1ccncc1 | 0.02
O=C(NCc1ccc2[nH]c3c(c2c1)CCCC3)c1ccc(S(=O)(=O)N2CCCCC2)cc1 | -2.4
COCCNC(=O)CN1C(=O)CC(C)(C)S(=O)(=O)c2ccccc21 | 1.5
Following part.
SMILES | Kir21 block
CCNc1nc(Oc2ccc(C(=O)OCC)cc2)nc(N2CCOCC2)n1 | -0.52
Nn1c(SCc2ccccc2)nnc1-c1ccccn1 | -0.84
COc1ccc2c(C)c(CC(=O)N3CCN(C(=O)C4COc5ccccc5O4)CC3)c(=O)oc2c1 (stereo not drawn) | -0.05
O=C(COC(=O)CCS(=O)(=O)c1ccc(Cl)cc1)Nc1ncc(Cl)cc1Cl | 0.66
CCOC(=O)c1cccnc1SC(CC)C(=O)NCc1ccco1 (stereo not drawn) | -0.97
O=C(c1ccncc1)N1CCN(C2CCC(c3ccccc3)CC2)CC1 (stereo not drawn) | -0.06
O=C1CSC(=Nc2ccc(O)cc2)N1c1ccc(O)cc1 | 0.01
COC(=O)c1csc(S(=O)(=O)N2CCCCC2)c1OC | -2.2
COc1ccc(S(=O)(=O)NCCC(C)C)cc1OC | -1.1
COc1cc(CN2CCCCCC2)cc([N+](=O)[O-])c1O | 1.3
CC12CCC(=O)N1C(C(=O)O)Cc1c2[nH]c2ccccc12 (stereo not drawn) | 2.1
N#Cc1nc(-c2ccccc2)oc1NCC1CCCO1 (stereo not drawn) | 0.05
COc1cccc(C2CC(c3ccc(Cl)cc3)Nc3nc(N)nn32)c1 (stereo not drawn) | 1.4
CCCCN(C(=O)c1cccs1)C1CCS(=O)(=O)C1 (stereo not drawn) | 0.58
Cc1coc2c1c(C)cc1oc(=O)c(CC(=O)NCC(=O)O)c(C)c12 | 0.31
Cc1ccccc1N(C(=O)c1csnn1)C(C(=O)NC1CCCCC1)c1ccncc1 (stereo not drawn) | -0.03
CCOc1ccc(N2C(=O)CC(SC(=NC)Nc3ccc4c(c3)OCO4)C2=O)cc1 (stereo not drawn) | 0.03
Cc1cccc(OCCC(=O)NCC(=O)Nc2cccc(C)c2C)c1 | -0.92
N#Cc1ccccc1NC(=O)COC(=O)c1ccc(F)cc1F | 0.46
COc1ccccc1CC(=O)Nc1c[nH]c(=O)[nH]c1=O | -0.53
Cc1ccccc1S(=O)(=O)N(CC(O)CN1C(=O)NC(C)(C)C1=O)c1ccccc1 (stereo not drawn) | -0.49
CC(C)(C)c1ccc(Oc2ccc(NC(=O)CCCC(=O)O)cn2)cc1 | 1.4
COc1cc(NS(C)(=O)=O)cc(OC)c1OC | 0.87

Screening data deposited in PubChem BioAssay by Johns Hopkins Ion Channel Center.
